Mtb bLac sens = beta-lactam sensitization of Mtb H37Rv; 330,000 compounds, 0.27% hits; inhibition, % at 25 µM; M. tuberculosis H37Rv growth with meropenem, percent inhibition; hits of this screen are not shown here;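 active = about 74% or more and at least 40 points above the plate without the antibiotic, then above 30% in a dose series; inconclusive = first-round hits that could not be retested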;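 also: growth measured after seven days incubation then overnight dye step; 0% = bacteria only wells and 100% = bacteria with antibiotic; twin plates without the antibiotic show which effects depend on it; some results filed as inactive read as strong as hits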
Starred values were filed as active, the others as inactive; ? = inconclusive.

Sample of the layout:
SMILES	Mtb bLac sens
CCOc1ccc(C(=O)NC(C(=O)NCC(c2cccs2)N(C)C)C(C)C)cc1 (centres undefined)	4.2
CC1(c2ccc(Cl)cc2Cl)NC(=O)N(CC(=O)NC2CCCCC2)C1=O (centres undefined)	-3.0

The listing, previewed entries included:
SMILES	Mtb bLac sens
CCOc1ccc(C(=O)NC(C(=O)NCC(c2cccs2)N(C)C)C(C)C)cc1 (centres undefined)	4.2
CC1(c2ccc(Cl)cc2Cl)NC(=O)N(CC(=O)NC2CCCCC2)C1=O (centres undefined)	-3.0
CC(=O)c1cccc(NC(=O)CSc2n[nH]c(=O)n2C2CC2)c1	-0.2
O=C(CN1C(=O)NC2(CCCc3ccccc32)C1=O)c1ccc(F)cc1 (centres undefined)	-7.8
O=C(NCCc1ccc(Cl)cc1)C1CCN(C(=O)c2ccc(F)cc2)CC1	-22.3
CC1CCCC(NC(=O)COC(=O)c2ccc3c(c2)OCCO3)C1C (centres undefined)	1.8
COc1cccc(NC(=O)CN(C)CC(=O)c2c(N)n(Cc3ccccc3)c(=O)n(C)c2=O)c1	-3.1
C=C[C@@]12CN(C)[C@H]3[C@H]1[C@@]1(C(=O)Nc4ccccc41)C1CC2[C@@H]3CO1	-7.8
Cc1ccc(NC(=O)c2nc[nH]c2C(=O)NCCCCNC(=O)c2[nH]cnc2C(=O)Nc2ccc(C)cc2)cc1	4.3
O=C1CCc2cc(S(=O)(=O)NC3CCCCC3)ccc2N1	8.8
O=C(CN1CCN(c2ccccc2O)CC1)Nc1ccnn1C1CCCC1	0.6
O=C(CC1SC(N2CCCCC2)=NC1=O)Nc1ccc(C(=O)NCCc2ccc(F)cc2)cc1 (centres undefined)	9.6
C=C[C@H]1CN2CC[C@H]1C[C@@H]2[C@@H](O)c1ccnc2ccccc12	4.5
CC(=O)c1cccc(NC(=O)C2CC(=O)N(c3ccc4c(c3)OCCO4)C2)c1 (centres undefined)	1.2
COc1ccc([C@H]2CC(=O)C=C(c3ccccc3)C2)cc1	4.2
CCCn1c(C)cc(C(=O)CN2C(=O)c3ccccc3C2=O)c1C	-7.8
COc1ccc2c(c1)[C@H]1[C@H](CO2)[C@H](c2ccccc2)[C@]2(C)C(=O)Nc3cc(Cl)ccc3C(=O)N12	96.6
NC(=O)C1CCN(C(=O)c2cccc(CN3C(=O)c4ccccc4C3=O)c2)CC1	-1.0
Cn1cccc1C1CCCN1CC(=O)Nc1ccc(C#N)c(Cl)c1 (centres undefined)	-5.9
CN(C(=O)COC(=O)c1ccc2ccccc2n1)c1ccccc1	38.5
COCC(C)n1c(SCC(=O)Nc2nccs2)nc2ccccc2c1=O (centres undefined)	-3.0
COc1cc(OC)c(C(=O)OCC(=O)Nc2nnc(-c3ccccc3)o2)cc1OC	-2.5
C[C@@]12C(=O)NCC(=O)N1[C@@H]1c3cc(Br)ccc3OC[C@@H]1[C@@H]2c1ccccc1	2.1
Cc1csc(=O)n1CCC(=O)OC(C)C(=O)Nc1ccc(N2CCOCC2)cc1 (centres undefined)	-7.5
COc1cc(C(=O)Nc2ccc3nc(N4CCOCC4)sc3c2)cc(OC)c1OC	9.2

Part of the list above, with each value named.
COCC(C)n1c(SCC(=O)Nc2nccs2)nc2ccccc2c1=O (centres undefined)
- Mtb bLac sens: -3.0
COc1cc(OC)c(C(=O)OCC(=O)Nc2nnc(-c3ccccc3)o2)cc1OC
- Mtb bLac sens: -2.5
C[C@@]12C(=O)NCC(=O)N1[C@@H]1c3cc(Br)ccc3OC[C@@H]1[C@@H]2c1ccccc1
- Mtb bLac sens: 2.1

(list continues)
SMILES	Mtb bLac sens
CCOC(=O)N1CCN(C(=O)c2cccc(S(=O)(=O)Nc3ccccc3Cl)c2)CC1	-4.8
COc1ccc(C)cc1S(=O)(=O)N1CCN(C/C=C/c2ccccc2)CC1	-1.8
COc1ccccc1-c1sc2ccccc2c1C#CC1(O)CCCCC1	7.1
COc1ccc([C@H]2CC(=O)C=C(c3ccccc3-c3ccccc3)C2)cc1	6.6
CN(C/C=C/c1ccccc1)Cc1cccc2ccccc12	0.3
CCc1sc(C(=O)N2CCN(c3ccc(F)cc3)CC2)cc1C	-19.0
CN(C)C1=NCCN1CC1CCCCCC1	-3.2
CCc1noc(C)c1C(=O)OCC(=O)Nc1cccc(C)c1	-7.2
CCN(C(=O)CSc1nnc(-c2ccco2)n1Cc1ccccc1)C1CCS(=O)(=O)C1 (centres undefined)	4.0
CC(C)CC1NC(=O)c2ccccc2-n2c1nc1ccc(Cl)cc1c2=O (centres undefined)	0.7
COc1ccccc1OCC(=O)NCC1CCCN(Cc2cnn(C(C)C)c2)C1 (centres undefined)	?
C[C@H](CO)N1C[C@H](C)[C@@H](CN(C)S(=O)(=O)c2cccs2)Oc2c(NC(=O)Cc3ccccc3)cccc2C1=O	3.2
N#Cc1cc(C#N)c(SCC(=O)N2CC(=O)Nc3ccccc32)nc1N	-3.3
CC(=O)Nc1ccc(SCC(=O)NC(=O)c2ccccc2Br)cc1	11.7
COc1ccc(C(C#N)CCC2OCCO2)cc1OC (centres undefined)	-2.6
Cc1ccccc1NC(=O)Nc1ccccn1	2.5
C=CC[C@@H](CC(=O)N[C@H](CO)Cc1ccccc1)C(=O)N[C@H](C)COC(=O)[C@@H](CC=C)Cc1ccc(F)cc1	3.3
O=C1COc2ccc(C(=O)COC(=O)c3ccccc3F)cc2N1	2.5
COc1ccccc1N1CCN(C(=O)C2Cc3ccccc3CN2C(=O)c2ccco2)CC1 (centres undefined)	1.1
CCC[C@H]1CCCC/C=C\CCCC(=O)OCCN1C(=O)OC(C)(C)C	-4.6
C[C@H]1COC(=O)[C@H](Cc2ccc(F)cc2)C/C=C\C[C@H](CC(=O)N(CCO)Cc2ccccc2)C(=O)N1	-3.8
CC1CCC2(CC1)NC(=O)N(CC(=O)c1ccc(CNC(=O)C(C)(C)C)s1)C2=O (centres undefined)	-1.1
[O-][n+]1c2ccccc2c2n1CCN1CCOC21c1ccc(Cl)cc1 (centres undefined)	87.9
NC(=O)c1cc([N+](=O)[O-])c(Cl)cc1NCc1cccnc1	-4.6
COC(=O)CCNS(=O)(=O)c1ccc2nsnc2c1	-11.1

The list continues.
SMILES	Mtb bLac sens
Cc1ccc(C(C)C)c(OCCNCc2ccccc2)c1	0.7
CC(OC(=O)CNC(=O)c1ccc(F)cc1)C(=O)Nc1ccc(S(=O)(=O)N2CCOCC2)cc1 (centres undefined)	-5.3
O=S(=O)(NCCCNS(=O)(=O)c1c(F)cccc1F)c1ccc2c(c1)OCCO2	-0.5
O=C(Nc1ccccc1N1CCOCC1)c1cccc(S(=O)(=O)N2CCOCC2)c1	-1.9
COc1ccc(S(=O)(=O)N2CCOCC2)cc1NC(=O)c1ccc2c(c1)OCO2	-6.5
O=C(C[C@H]1C/C=C\CC[C@H](Cc2ccc(F)cc2)C(=O)OC[C@H]2CCCN2C1=O)NCCO	-7.9
CCOC(=O)C1=C(C)Nc2ccccc2N/C1=N\S(=O)(=O)c1cccc(Cl)c1	-5.1
COc1cc(C=NNC(=O)c2ccc(NS(=O)(=O)c3cccs3)cc2)cc(Br)c1O	3.3
COc1cccc(CN2CCNC(=O)C2CC(=O)N(C)C2CCOCC2)c1OC (centres undefined)	?
CC(NC(=O)CSc1ncccn1)c1ccc2c(c1)OCO2 (centres undefined)	-0.5
Cc1nc(SCC(=O)Nc2ccccc2Cl)c2c(C)c(C)sc2n1	-2.3
COc1ccccc1NC(=O)NC1(C(=O)N2CCCCC2)CCCCC1	3.6
CCOC(=O)C1CCN(C(=O)c2ccc3c(c2)OCCO3)CC1	2.6
Cc1cc(C)c(C)c(S(=O)(=O)N2CCN(C(=O)c3cc(S(=O)(=O)N4CCOCC4)ccc3F)CC2)c1C	-5.5
CCCn1nc(C(=O)Nc2nc(-c3ccccn3)cs2)c2ccccc2c1=O	88.9
Cc1ccc(NC(=O)CN2C(=O)S/C(=C/c3ccncc3)C2=O)cc1	?
Cc1ccccc1NC(=O)CON=C(N)c1ccccc1	3.7
CC(C)CC1NC(=O)c2cc(Cl)ccc2-n2c1nc1cc(F)ccc1c2=O (centres undefined)	-1.8
COc1ccc(C(=O)OCCc2cc3ccccc3c(=O)o2)cc1	15.1
COc1ccccc1NC(=O)COc1cccnc1[N+](=O)[O-]	-5.7
CCOc1ccc(S(=O)(=O)N2CCN(C(=O)c3ccc(C)c(S(=O)(=O)N4CCOCC4)c3)CC2)cc1	-7.4
CC1(C2CC2)NC(=O)N(CC(=O)Nc2ccc(Cl)c([N+](=O)[O-])c2)C1=O (centres undefined)	-4.0
O=C(N/N=C/C1CC2CCC1C2)C1CC1 (centres undefined)	-11.1
CCC(=O)NC(=S)Nc1ccc(S(=O)(=O)NC2CCCCC2)cc1	?
O=C(NC1CCCC1)C(c1ccncc1)N(C(=O)c1csnn1)c1cccc(Cl)c1 (centres undefined)	-7.3

(further entries)
SMILES	Mtb bLac sens
COc1ccc(NS(=O)(=O)c2cccc(C(=O)NN=Cc3cc(Br)c(O)c(Br)c3)c2)cc1	3.0
O=C(Nc1ccc(OC(F)F)cc1)c1cc(S(=O)(=O)N2CCCCC2)ccc1N1CCOCC1	-2.1
C=CCn1c(SCC(=O)c2ccc(O)c(O)c2)nnc1-c1cccc(C)c1	-7.4
Cc1ccccc1NC(=O)COC(=O)c1cccc(S(=O)(=O)N2CCCCC2)c1	-2.9
CC1CCN(C(C)C(=O)Nc2ccc(S(=O)(=O)N3CCCC3)cc2)CC1 (centres undefined)	2.0
CCOc1ccccc1NC(=O)c1cc(-c2ccccn2)nc2ccccc12	84.6
Cc1ccc(NC(=O)CN(C)C(=O)CSc2nnc(N)s2)cc1	-5.1
CCCCN1C(=O)c2ccc(C(=O)OCC(=O)N3CCN(c4ccccc4)CC3)cc2C1=O	88.0
O=C(CNC(=O)c1ccc2ccccc2c1)NC1CCCCC1	-2.0
CC1CCCCC1NC(=O)COc1ccc(C#N)cc1 (centres undefined)	-5.9
CC(OC(=O)c1ccc2ccccc2c1)C(=O)N(C)Cc1ccccc1 (centres undefined)	0.8
O=C(/C=C/c1cccc([N+](=O)[O-])c1)OCC(=O)N1CCOCC1	-0.5
Cc1cccc(N2CCN(C(=O)CCc3nc4ccccc4c(=O)[nH]3)CC2)c1C	9.2
Cc1ccc(CONC(=O)c2ccc(C)cc2)cc1	9.0
O=C(COc1ccc(Br)cc1F)Nc1nnc(C2CC2)s1	0.0
O=C(NC1CCN(S(=O)(=O)c2ccc(F)cc2)CC1)C1CCCCC1	-1.8
COc1ccc(C(=O)N[C@H](C(=O)NCc2ccc(C)cc2)C(C)C)cc1	-2.6
Cc1ccc(S(=O)(=O)N2[C@@H](c3ccc(C(C)(C)C)cc3)C(C(=O)O)=CC[C@H]2c2ccc(Cl)c(Cl)c2)cc1	5.4
COc1ccc(CC(=O)Nc2ccc(S(=O)(=O)N3CCC(C)CC3)cc2)c(OC)c1	3.3
Cc1cc(C(=O)COC(=O)c2ccc(O)cc2)c(C)n1CC(F)(F)F	-3.9
NS(=O)(=O)c1ccc(CNC(=O)c2ccc(Cl)c(S(=O)(=O)NCc3ccccc3)c2)cc1	-8.5
CCN(CC(=O)Nc1ccc(NC(C)=O)cc1)S(=O)(=O)/C=C/c1ccccc1	-6.5
COc1ccccc1NC(=O)CN(Cc1ccco1)C(=O)c1cncc(Br)c1	-4.7
Cc1nnc(NC(=O)CCC(=O)N2CCN(S(=O)(=O)c3cc([N+](=O)[O-])ccc3C)CC2)s1	1.8
Cc1ccc(CN2CC(C(=O)NCCC3=CCCCC3)CC2=O)cc1 (centres undefined)	-3.0

The results go on.
SMILES	Mtb bLac sens
CC(=O)c1ccc(N2C(=O)CC(N3CCN(S(=O)(=O)c4ccc(C)c(C)c4)CC3)C2=O)cc1 (centres undefined)	-3.4
CCCc1cc(=O)oc2cc(OCC(=O)NC(Cc3c[nH]c4ccc(O)cc34)C(=O)O)c(Cl)cc12 (centres undefined)	-6.0
COc1ccc(NC(=O)Nc2ccc3c(c2)C(=O)N([C@H](C)CO)C[C@H](C)[C@@H](CN(C)S(=O)(=O)c2ccc(F)cc2)O3)cc1	3.4
COC(=O)C1=C(c2ccc(F)cc2OCc2ccccc2)C[C@@H]2CC[C@H]1N2C(=O)NCc1ccc([N+](=O)[O-])cc1	9.8
O=C(NCCC(=O)N1CCN(c2ccccn2)CC1)c1ccc([N+](=O)[O-])cc1	-5.5
Nc1c(C(=O)CSc2nc(-c3ccccc3)cs2)c(=O)[nH]c(=O)n1C1CC1	3.5
O=C1CC(C(=O)N2CCN(c3ccccc3Cl)CC2)CN1Cc1ccccc1 (centres undefined)	5.3
COc1ccc(CNC(=O)c2cccc(S(=O)(=O)N3CCCCC3)c2)cc1OC	4.2
Cc1ccc(C(=O)N2CCCCC2C(=O)O)cc1S(=O)(=O)N1CCCCC1 (centres undefined)	-18.6
COc1ccc(OCCOc2ccc(N(C)S(=O)(=O)c3ccccc3)cc2)cc1	16.4
Cc1[nH]n(-c2ccccc2)c(=O)c1N=Nc1cccc([N+](=O)[O-])c1	-6.0
Cn1nnnc1Sc1ncnc2scc(-c3ccc([N+](=O)[O-])cc3)c12	?
CCCOc1c(Br)cc(C(=O)OCC(=O)NC(=O)c2cccn2C)cc1OC	38.2

Part of the list above, with bars between the fields:
SMILES | Mtb bLac sens
COc1ccccc1N1CCN(C(=O)C2Cc3ccccc3CN2C(=O)c2ccco2)CC1 (centres undefined) | 1.1
CCC[C@H]1CCCC/C=C\CCCC(=O)OCCN1C(=O)OC(C)(C)C | -4.6
C[C@H]1COC(=O)[C@H](Cc2ccc(F)cc2)C/C=C\C[C@H](CC(=O)N(CCO)Cc2ccccc2)C(=O)N1 | -3.8
CC1CCC2(CC1)NC(=O)N(CC(=O)c1ccc(CNC(=O)C(C)(C)C)s1)C2=O (centres undefined) | -1.1
[O-][n+]1c2ccccc2c2n1CCN1CCOC21c1ccc(Cl)cc1 (centres undefined) | 87.9
NC(=O)c1cc([N+](=O)[O-])c(Cl)cc1NCc1cccnc1 | -4.6
COC(=O)CCNS(=O)(=O)c1ccc2nsnc2c1 | -11.1

Bioassay records (PubChem)

The list is partial. The share of hits here may be higher or lower than overall.
